# 2A StopGo = lowers the luciferase signal of an FMDV 2A StopGo reporter; human cells with a luciferase reporter of 2A StopGo recoding; control for the full effect not named in the record; Potency, µM (doses to about 57.9 µM), without a hit: at the top dose signal change, negative = less light; 1.2% of 410,000 active; AID 1159524; active = well fitted falling curve with a large enough effect; inconclusive = small, poorly fitted or top-dose-only effect; inactive = no such curve, though single readings can be large or run the other way; tested in HEK293T cells; also: % is scaled to controls: 0 for no effect and ±100 for the full control effect; nearly all actives have a fitted effect of over 45% in size; luciferase light after 4 h
# LASV entry inh = Lassa virus entry inhibition | Lassa virus pseudotype entry inhibition, cell reporter; control for the full effect not named in the record | Potency, µM (top dose mostly 37.9 µM), without a hit: top-dose activity change, negative = inhibition, hits mostly inhibitors | 1.2% of 300,000 active | AID 540256; active means well fitted inhibition curve with a large enough effect; inconclusive means small, poorly fitted or top-dose-only effect, or effect the other way; inactive means flat fitted curve, though single readings scatter; tested in HEK293 cells; also: % is scaled to controls: 0 for no effect and ±100 for the full control effect; nearly all actives have a fitted effect of over 50% in size; luciferase read-out
# Cruzain Triton = blocks cruzain activity in presence of Triton detergent; purified cruzain, Z-FR-AMC fluorescence, 0.01% Triton; 0.43% of 200,000 active; P25779; Potency, µM, without a hit: max response, negative = inhibition, hits mostly inhibitors;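 also: plate controls were neutral wells for no effect and buffer without enzyme for full effect; nearly all actives have a fitted effect of over 40% in size; top concentration of the series not given in the record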
# Target sequence (P25779 123-467 limits assumed): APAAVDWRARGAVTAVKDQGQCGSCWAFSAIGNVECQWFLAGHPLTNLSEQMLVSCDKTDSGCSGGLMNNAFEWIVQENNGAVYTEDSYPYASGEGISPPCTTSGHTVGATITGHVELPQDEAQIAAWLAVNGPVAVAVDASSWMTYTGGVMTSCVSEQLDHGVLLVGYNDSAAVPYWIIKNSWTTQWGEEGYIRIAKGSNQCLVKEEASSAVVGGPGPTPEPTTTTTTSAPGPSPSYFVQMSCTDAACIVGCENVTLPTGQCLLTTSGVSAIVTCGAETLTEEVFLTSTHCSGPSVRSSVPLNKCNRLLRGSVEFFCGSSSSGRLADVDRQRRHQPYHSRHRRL
#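 Read-out: AMC fluorescence (360 nm excitation, 450 nm emission), four reads over 2 min, first-to-third difference used. Conditions: cruzain 1.5 nM, Z-FR-AMC 2 uM, pH 5.5 acetate, 5 mM DTT, 0.01% Triton X-100.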
# NS1 inh = influenza NS1 inhibition; S. cerevisiae slowed by influenza A NS1, growth recovery by OD600; Potency, µM (titrated, usually from 46.1 µM), inactives show top-dose activity, positive = more growth; 0.4% of 270,000 active; AID 2326; active means well fitted rising curve with a large enough effect; inconclusive means small, poorly fitted or top-dose-only effect; inactive means no such curve, though single readings can be large or run the other way; also: nearly all actives have a fitted effect of over 50% in size
#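 Compounds were scored for reversing the slow growth caused by influenza A NS1 in S. cerevisiae, measured by optical density at 600 nm. Assay medium contained 2% galactose at pH 6.0; NS1-free yeast of the same strain were the positive control.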
# SARS PLP yeast = inhibitors of SARS-CoV papain-like protease in yeast. 0.19% of 330,000 active. S. cerevisiae expressing SARS-CoV PLpro, growth rescue; control for the full effect not named in the record. Potency, µM (series often up to 32.9 µM), for the others: top-dose activity, positive = growth rescue; active means well fitted rising curve with a large enough effect; inconclusive means small, poorly fitted or top-dose-only effect; inactive means no such curve, though single readings can be large or run the other way; also: 0% is about no effect; nearly all actives have a fitted effect of over 55% in size; growth read by luminescence after 48 h
# Cruzain inh noDet = blocks cruzain activity in detergent-free assay | Potency, µM, for the others: max response, negative = inhibition, usual class: inhibitors | P25779 | AID 1476 | purified cruzain, Z-FR-AMC fluorescence, no detergent | 2.3% of 200,000 active;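 also: plate controls were enzyme without inhibitor for no effect and buffer without enzyme for full effect; nearly all actives have a fitted effect of over 40% in size; top concentration of the series not given in the record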
#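 Detergent-free condition (0.00005% Triton X-100) in acetate buffer pH 5.5 with DTT. 1.5 nM enzyme and compound were pre-mixed 15 min, then 2 uM Z-FR-AMC substrate added; reaction progress from fluorescence change between first and third reads (60 s).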
# MARV entry inh = inhibitors of Marburg virus binding or cell entry; Marburg virus pseudotyped entry inhibition, cell reporter; control for the full effect not named in the record; about a third of the inactives were read at about 46 µM; Potency, µM (top dose mostly 37.8 µM), for inactives: at the top dose activity change, negative = inhibition, actives largely listed as inhibitors; 1.8% of 300,000 active; AID 540276; active = well fitted inhibition curve with a large enough effect; inconclusive = small, poorly fitted or top-dose-only effect, or effect the other way; inactive = flat fitted curve, though single readings scatter; tested in HEK293 cells; about a fifth of its hits are not listed in these tables; also: % is scaled to controls: 0 for no effect and ±100 for the full control effect; luciferase read-out
# RE007 growth inh = less growth of the S. pombe RE007 Vpr strain; S. pombe RE007 Vpr strain, BacTiter-Glo ATP luminescence, 24 h; control for the full effect not named in the record; Potency, µM (series often up to 92.2 µM), for the others: at the top dose activity change, negative = less growth; 0.21% of 360,000 active; AID 651644; active = well fitted falling curve with a large enough effect; inconclusive = small, poorly fitted or top-dose-only effect; inactive = no such curve, though single readings can be large or run the other way;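 also: % is scaled to controls: 0 for no effect and ±100 for the full control effect; nearly all actives have a fitted effect of over 50% in size; the assay follows cell death caused by Vpr and the record does not say whether a fall means rescue or toxicity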
#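 Fission yeast RE007 carrying one integrated HIV-1 vpr copy, seeded at OD 0.01 in PMG+AL medium with 23 nL pinned compound. Grown 24 h at 30 degrees; viability read by BacTiter-Glo luminescence after 5 min.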
# An asterisk follows results filed as active; ? = inconclusive; . = not tested or not shown; & = joins results of further samples; [ ] = dose if it differs, or a comment. Unless noted, calls follow the shape of the dose curve; as a rule, active = well fitted curve in the direction sought with a large enough effect; inconclusive = small, poorly fitted or top-dose-only effect, or another doubt; inactive = no such curve, though single readings can be large; an effect the other way counts as inactive or inconclusive. Potency is read from the fitted curve at half-maximal effect. An unsorted share of the library; 4.5% or so of the library scored in one or more.
SMILES	2A StopGo	LASV entry inh	Cruzain Triton	NS1 inh	SARS PLP yeast	Cruzain inh noDet	MARV entry inh	RE007 growth inh
Cc1cccc(NC(=O)Cn2nnc(C(=O)NCc3cccs3)c2N)c1C	0%	-7%	3.7%	8%	3%	?	-8%	-3%
CNCc1ccccc1OCc1ccc(F)cc1	-15%	?	.	2%	0%	.	?	-9%
Cc1ccc(S(=O)(=O)N2CCCCC2)cc1C(=O)OCC(=O)NC(=O)NC12CC3CC(CC(C3)C1)C2	-10%	7%	-3.7%	17%	1%	2%	?	11%
CCCS(=O)(=O)N1CCC(C(=O)NCCCN(C)Cc2ccccc2)CC1	28µM*	-5%	7.0%	-5%	1%	5%	6%	-2%
O=C(NCC1(c2ccccc2)CCCC1)C(=O)Nc1cccc(Br)c1	-20%	-5%[46.1 µM]	-1.5%	.	.	5%	1%[46.1 µM]	.
CCc1nc2sc(C(C)=O)c(N)c2c2c1CCCC2	-14%	.	.	-9%	0%	.	.	-10%
CCC1(CC)SCCNC1=O	-10%	-2%	.	.	.	.	19%	-23%
Cc1cc(C)cc(NC(=O)c2cc(C)n(Cc3cccs3)c2C)c1	17%	-29%[46.1 µM]	.	3%	0%	.	?	4%
CN(C)S(=O)(=O)c1cccc(NC(=O)CN2C(=O)NC3(CCc4ccccc4C3)C2=O)c1 (stereo not drawn)	-15%	0%	.	8%	10%	.	-18%	6%
Cc1ccc(C)c(OCc2cc(C(=O)N(C)Cc3ccccn3)no2)c1	23%	.	.	-5%	-5%	.	.	-7%
CCOC(=O)c1ccc(COC(=O)CNC(=O)CNC(=O)Cc2ccccc2)cc1	-4%	-1%	.	8%	0%	.	1%	0%
Cc1ccc(-n2ncc3c(=O)n(-c4ccc(C)c(C)c4)c(-c4ccco4)nc32)cc1	?	?	-9.0%	7%	2%	-3%	?	25%
Cc1c(C(=O)Nc2ccc(Br)cc2F)oc2ccc(S(=O)(=O)N3CCC4(CC3)OCCO4)cc12	?	-1%[46.1 µM]	1.6%	.	.	8%	.	.
CC(=O)c1ccc(OCCOc2ccc(Cl)c3cccnc23)cc1	11%	18%[46.1 µM]	.	13%	0%	.	?	-11%
O=c1cc(CSc2n[nH]c(-c3ccccc3)n2)[nH]c2ccccc12	?	10%[46.1 µM]	-7.5%	.	.	-24%	.	.
O=C1CCNCCN1[C@H](CO)Cc1ccccc1	-11%	.	.	12%	10%	.	.	5%
CCCNC(=O)[C@H](C)NC(=O)c1ccc(Br)cc1	15%	.	.	0%	-6%	.	.	0%
COC(=O)c1ccc(NC(=O)CCCN2C(=O)NC(C)(C)C2=O)cc1	-16%	?	.	.	1%	.	3%[46.1 µM]	-3%
CCN(C(=O)COC(=O)CNS(=O)(=O)c1ccc(SC)c([N+](=O)[O-])c1)C1CCCCC1	-3%	-4%	.	.	-3%	.	?	13%
O=C(CN1CCN(CC(=O)Nc2ccccc2Cl)CC1)Nc1ccc2c(c1)OCCO2	-17%	5%	-2.4%	-19%	-1%	5%	?	-3%
COc1cc(C(=O)OCC(C)=O)ccc1OCc1c(C)noc1C	15%	-12%	.	.	0%	.	-16%[46.1 µM]	0%
Cc1cccc(NC(=O)C2CCN(S(=O)(=O)c3cccc4nsnc34)CC2)n1	?	?	-2.1%	-5%	3%	4%	-20%	1%
CC(=O)Oc1c(C(C)C)cc(N(C(C)=O)c2ccccc2)cc1C(C)C	-25%	?	.	.	.	.	-18%	8%
Cc1cccc(C(=O)NCC(=O)OCC(=O)N(C)CC(=O)Nc2ccc(F)cc2)c1	-2%	0%	.	.	0%	.	8%	5%
Cc1ccc(CN2CC(C(=O)Nc3nnc(SCc4c(Cl)cccc4Cl)s3)CC2=O)cc1 (stereo not drawn)	-12%	-3%	-6.7%	?	-7%	10%	17%	2%
CC(C)COP(=O)(c1ccc(N(C)C)cc1)C(O)c1ccc(N(C)C)cc1 (stereo not drawn)	-18%	.	.	1%	-1%	.	.	0%
COc1ccc(C2N3CC4(C)CN2CC(C)(C3)C4O)cc1OC (stereo not drawn)	-7%	16%	2.5%	9%	8%	4%	8%&8%	8%
COC(=O)c1cn(NC(=O)C2CCC(C)CC2)c(=O)c2ccccc12 (stereo not drawn)	-18%	2%	-4.9%	-4%	0%	-1%	-12%	4%
CC(C)C(=O)Nc1ccc(C(=O)NNC(=S)NC(=O)c2cccs2)cc1	-13%	-11%	-0.2%	3%	-21%	2%	11%	8%
O=C(c1ccc2nc(Cc3cccc(Cl)c3)oc2c1)N1CCOCC1	7%	-18%	.	-12%	-3%	.	34%	?
O=S(=O)(c1ccccc1)N1c2cc(Cl)ccc2Oc2nc3ccccc3nc21	21%	10%	-1.4%	4%	-17%	?	-8%	-7%
O=C(COc1ccc(Cl)cc1Cl)Nc1nc2n(n1)C(c1ccccc1)CC(=O)N2 (stereo not drawn)	.	3%	-3.6%	-19%	9%	15%	-3%	1%
Cc1cc(C)c(NC(=O)CN2C(=O)NC3(CCCCC3)C2=O)c(C)c1	5%	-7%	4.1%	2%	-1%	1%	6%	-4%
O=C(NNC(=O)c1cccs1)c1ccc(Br)o1	-13%	-5%	-19%	4%	2%	-15%	19%	7%
CC(=O)Cc1nsc(NC(=O)c2ccc(-c3cc(Cl)ccc3Cl)o2)n1	-1%	?	.	.	2%	.	-8%[46.1 µM]	-13%
Cc1ccc(S(=O)(=O)N(CC(=O)Nc2cccnc2)c2ccc(Br)cc2)cc1	11%	-8%	.	-20%	-9%	.	-25%	-4%
Brc1ccc2ncnc(NCc3ccccc3)c2c1	?	?	-4.6%	-143%	-19%	-9%	?	?
Cc1ccc(-n2c(C)cc(-c3csc(N)n3)c2C)cc1	-25%	-8%	-0.7%	4%	0%	25µM*	-19%	-22%
Cc1nn2c(C)c(C(=O)N3CCN(c4ccc(Cl)cc4)CC3)cnc2c1-c1ccc(F)cc1	-6%	11%[46.1 µM]	-1.8%	.	.	-12%	.	.
CCOc1ccc(-n2c(SCC(=O)NC(C)CC)nc3n[nH]c(C)c3c2=N)cc1 (stereo not drawn)	-12%	-1%	1.1%	14%	15%	?	-13%[46.1 µM]	-13%
CCNC(=S)N(CCc1c(C)[nH]c2ccccc12)Cc1cccnc1	-15%	.	.	1%	-2%	.	.	14%
CC(=O)Nc1ccc2c(c1)C(=Nc1ccc(C)cc1)c1ccccc1-2	40%[activator]	29%	.	.	.	.	-21%	-16%
CC1CCN(S(=O)(=O)c2ccc(C(=O)N3CCCC(C(F)(F)F)C3)cc2)CC1 (stereo not drawn)	?	-7%	.	.	1%	.	-21%[46.1 µM]	13%
COc1ccc(C2(C)CC(C)(C)Nc3ccccc32)cc1 (stereo not drawn)	-4%	2%[46.1 µM]	.	-6%	-8%	.	?	3%
O=C(NS(=O)(=O)Oc1ccc(Cl)cc1)OC[C@@H]1CCCN2CCCC[C@H]12	-15%	1%	-1.8%	-8%	22%	0%	2%	20%
COCCCNC(=O)c1ccc(C(=O)NCCCOC)cc1	-3%	28%[14.3 µM]	3.0%	9%	-5%	2%	12%	1%
COc1ccc(-c2nnc(SCC(=O)Nc3cccc(Cl)c3C)nc2-c2ccc(OC)cc2)cc1	-10%	-7%[46.1 µM]	0.5%	.	.	0%	.	.
CC(C)c1nc2oc3c(NCCO)ncnc3c2c2c1COC(C)(C)C2	-9%	.	.	-43%	-1%	.	.	9%
COc1ccc(CN2C(=O)N(c3ccc(OC)cc3)C(=O)C2CC(=O)Nc2ccccc2)cc1 (stereo not drawn)	0%	.	.	-11%	0%	.	.	-3%
CSc1ncc(Cl)c(C(=O)Nc2cccc3ccccc23)n1	-8%	.	-0.3%	-6%	16%	?	-1%	-3%
CC(=O)c1c(C)n([O-])c2cc(C)ccc2[n+]1=O	-21%	1%	-8.2%	5%	-8%	-5%	5%	-13%
CCOCCn1c(CN2CCC(C)CC2)nc2c1c(=O)n(C)c(=O)n2C	.	10%	0.8%	-42%	14%	0%	12%	.
CCCn1c(=O)c2ccccc2n2c(SCc3cc(=O)oc4ccc5ccccc5c34)nnc12	-8%	-6%	-7.7%	-30%	10%	-4%	-4%	-7%
Cc1ccc(CNS(=O)(=O)c2ccc3[nH]c4c(c3c2)CCCCC4)cc1	-12%	-4%[46.1 µM]	-20%	.	.	-11%	.	.
O=C(/C=C/Sc1ccccc1)c1ccc(Cl)cc1	.	-71%	-0.4%	-13%	-16%	-6%	?	?
CSc1ccc(CN(C)C(=O)COc2ccc(C(=O)c3ccccc3)cc2)cc1	-9%	?	.	1%	-3%	.	-24%[46.1 µM]	-24%
Cc1[nH]c(=O)c(C(=O)c2cc(Cl)ccc2O)cc1C(=O)O	-22%	0%[46.1 µM]	.	.	-1%	.	8%[46.1 µM]	-23%
O=C(c1ccco1)N1CCN(C2=NS(=O)(=O)c3ccccc32)CC1	-16%	8%	2.5%	?	0%	-1%	13%	-10%
COc1cc(OC)cc(C(=O)N[C@H](C(=O)NC2CCCc3ccccc32)C(C)C)c1 (stereo partly drawn)	24%	1%[46.1 µM]	.	.	2%	.	?	2%
CSC1=C(C#N)C(c2ccc(C)s2)CC(=O)N1 (stereo not drawn)	-14%	3%	-0.2%	1%	-3%	12%	0%	-1%

# Other results follow:
SMILES	2A StopGo	LASV entry inh	Cruzain Triton	NS1 inh	SARS PLP yeast	Cruzain inh noDet	MARV entry inh	RE007 growth inh
CCc1nnc(NC(=O)c2ccc3ncsc3c2)s1	38%[activator]	.	.	5%	0%	.	.	25%
COc1ccc(-c2ccc(-c3nc4c(c(=O)[nH]c(=O)n4Cc4ccccc4)n3C)o2)c([N+](=O)[O-])c1	-17%	-2%	-1.8%	3.5µM*	-8%	?	-2%	0%
C#CCOC(=O)CCC(=O)Nc1cc(OC)nc(OC)n1	.	.	1.6%	-11%	2%	-11%	-1%	.
COc1ccc(-n2c(C)cc(/C=C3/SC(=S)N(C)C3=O)c2C)cc1	11%	4%	-9.4%	-1%	-8%	?	?	-3%
NCCCC[C@H]1CNC(=O)C(=O)N1CCc1cccc2ccccc12	-11%	.	.	-2%	1%	.	.	-10%

# Screening results from PubChem BioAssay.
